Screening data as filed in PubChem BioAssay.
Arbovirus inh = antivirals against arbovirus infection | inhibition, % at 10 µM | 200,000 tested, 0.37% active | arbovirus infection cell-based antiviral screen;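 active = inhibition from about 30%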;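 note: bluetongue infection of BSR cells; cell survival read as ATP light after 72 h; 0% = infected wells without compound and 100% = uninfected wells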
Mtb H37Rv = M. tuberculosis H37Rv growth inhibitors, H37Rv strain (AID 1626); M. tuberculosis H37Rv growth inhibition; higher % means a stronger effect; inhibition, % at 10 µM, or IC50 in µM where a hit was titrated; 220,000 tested, 0.95% active;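 active = confirmed in a dose series; inconclusive = inhibition above 80% but not taken into the dose series; inactive = below 80% or under 30% at every dose of the series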;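 note: bacteria incubated seven days before Alamar blue readout; 0% = bacteria only wells and 100% = bacteria with antibiotic wells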
Mtb betalactam = beta-lactam sensitization of Mtb H37Rv; inhibition, % at 25 µM; AID 434955; M. tuberculosis H37Rv growth with meropenem, percent inhibition; hits of this screen are not shown here; 330,000 tested, 0.27% active;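 active = about 74% or more and at least 40 points above the plate without the antibiotic, then above 30% in a dose series; inconclusive = first-round hits that could not be retested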;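 note: growth measured after seven days incubation then overnight dye step; 0% = bacteria only wells and 100% = bacteria with antibiotic; twin plates without the antibiotic show which effects depend on it; some results filed as inactive read as strong as hits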
RecA intein inh = inhibitors of M. tuberculosis RecA intein splicing | 290,000 tested, 0.75% active | AID 2221 | cell-free RecA intein splicing, fluorescence | inhibition, %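 (about 9 µM by stock and volumes)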; in the data active = inhibition above about 30%; inconclusive = no clear call, values can overlap the other calls;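 note: 0% = vehicle wells and 100% = reference inhibitor control wells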
Target sequence (P9WHJ3 whole entry, looked up): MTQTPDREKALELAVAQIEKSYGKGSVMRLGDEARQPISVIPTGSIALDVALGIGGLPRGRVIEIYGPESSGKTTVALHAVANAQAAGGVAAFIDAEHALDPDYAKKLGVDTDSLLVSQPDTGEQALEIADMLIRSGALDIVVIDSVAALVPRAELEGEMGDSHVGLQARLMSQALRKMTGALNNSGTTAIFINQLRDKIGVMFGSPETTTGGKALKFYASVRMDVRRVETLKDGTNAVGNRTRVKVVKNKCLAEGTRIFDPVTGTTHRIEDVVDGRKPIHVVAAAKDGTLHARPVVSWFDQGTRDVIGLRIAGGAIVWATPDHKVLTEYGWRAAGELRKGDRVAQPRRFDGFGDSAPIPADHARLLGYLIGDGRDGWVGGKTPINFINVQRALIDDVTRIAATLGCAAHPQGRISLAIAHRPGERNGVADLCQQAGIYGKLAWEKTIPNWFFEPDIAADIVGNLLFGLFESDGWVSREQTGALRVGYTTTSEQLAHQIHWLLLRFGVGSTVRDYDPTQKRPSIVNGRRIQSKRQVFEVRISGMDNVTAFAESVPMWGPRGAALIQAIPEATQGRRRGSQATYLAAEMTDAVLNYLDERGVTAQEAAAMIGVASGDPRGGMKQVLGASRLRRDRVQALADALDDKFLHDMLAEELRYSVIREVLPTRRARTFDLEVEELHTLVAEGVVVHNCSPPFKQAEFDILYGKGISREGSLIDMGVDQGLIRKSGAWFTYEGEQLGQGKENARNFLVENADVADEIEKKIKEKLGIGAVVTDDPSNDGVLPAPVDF
YopH inh = YopH (Yersinia) phosphatase inhibition | fluorescence Ex485/Em525 | inhibition, %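 (about 10 µM by stock and volumes)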 | 140,000 tested, 0.16% active;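 active = inhibition of 50% or more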;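 note: controls were vehicle for no effect and minimum signal wells for full effect; inactives centre near -20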
Arbovirus inh repeat = further read-out of Arbovirus inh, marked with its call; inhibition, %; measured here: 10K subset replicate screen; many hits read low in the repeat;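 first of two repeat runs on a subset; 0% = infected and 100% = uninfected wells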
* marks the source's active call; other numbers are inactive results; ? = inconclusive; / = no result given.

Sample of the layout:
SMILES	Arbovirus inh	Mtb H37Rv	Mtb betalactam	RecA intein inh	YopH inh	others
CN(C)/C=C1\C=C(c2ccccc2)OC1=O	12	-3%	-6	-4.3	0
COc1ccc2c(c1)CCCC21NC(=O)N(CC(=O)NC(=O)NCc2ccccc2)C1=O (stereo not given)	-17	4%	-7	-0.4	/
CCNC(=S)NNC(=O)c1cc(-c2cccc(C)c2)nc2ccccc12	-12	13%	44	5.3	-38
O=C(O)C1CCCN1C(=O)OCC1c2ccccc2-c2ccccc21 (stereo not given)	/	-5%	-2	0.8	/
Cc1ccc(C(=O)COC(=O)CN2C(=O)C3C4CC(C(Br)C4Br)C3C2=O)cc1 (stereo not given)	/	/	-6	3.0	/
Cc1ccc(S(=O)(=O)N[C@H](C(=O)N2CCC(C(=O)N3CCC[C@H]3C(=O)O)CC2)C(C)C)cc1	5	3%	/	6.6	-9

The whole of this part, from the start:
SMILES	Arbovirus inh	Mtb H37Rv	Mtb betalactam	RecA intein inh	YopH inh	others
CN(C)/C=C1\C=C(c2ccccc2)OC1=O	12	-3%	-6	-4.3	0
COc1ccc2c(c1)CCCC21NC(=O)N(CC(=O)NC(=O)NCc2ccccc2)C1=O (stereo not given)	-17	4%	-7	-0.4	/
CCNC(=S)NNC(=O)c1cc(-c2cccc(C)c2)nc2ccccc12	-12	13%	44	5.3	-38
O=C(O)C1CCCN1C(=O)OCC1c2ccccc2-c2ccccc21 (stereo not given)	/	-5%	-2	0.8	/
Cc1ccc(C(=O)COC(=O)CN2C(=O)C3C4CC(C(Br)C4Br)C3C2=O)cc1 (stereo not given)	/	/	-6	3.0	/
Cc1ccc(S(=O)(=O)N[C@H](C(=O)N2CCC(C(=O)N3CCC[C@H]3C(=O)O)CC2)C(C)C)cc1	5	3%	/	6.6	-9
CC(C)(C)S(=O)(=O)c1ccccc1C(=O)O	-1	3%	5	-3.1	-48
COc1ccccc1NC(=O)C(C)N1CCN(C/C=C/c2ccccc2)CC1 (stereo not given)	-1	12%	2	1.4	8
Cc1ccc(S(=O)(=O)N2CCOCC2)cc1C(=O)OCC(=O)Nc1ccc2c(c1)OCO2	-7	-3%	-3	-0.7	9
Cn1c(=O)c2c(nc(CN3CCC(C(N)=O)CC3)n2Cc2ccccc2Cl)n(C)c1=O	/	-6%	-1	-0.5	/
CSc1ccccc1NC(=O)CSc1n[nH]c(N)n1	2	6%	26	-1.4	/
O=C(NCc1ccc(F)cc1)C1CCC(=O)N1CCc1ccccc1 (stereo not given)	1	-4%	-6	-5.0	-27	Arbovirus inh repeat=2
Cc1nc(NCC2CCCO2)c2oc3ccccc3c2n1 (stereo not given)	0	0%	0	-1.4	5
Cc1cccc(OCCCCCn2ccnc2)c1	5	3%	-3	0.4	-52
COCCn1c(-c2ccc(Cl)cc2Cl)nc2c(c(=O)c3ccccc3n2C)c1=O	7	4%	8	-1.2	-27
CN1CCN(c2nc3ccccn3c(=O)c2C=O)CC1	/	/	0	-37	/
CCOC(=O)C1C(=O)NC(SC)=C(C#N)C1c1ccccc1F (stereo not given)	1	-2%	?	2.5	-41	Arbovirus inh repeat=-2
Cn1cnnc1Sc1ccc(C(=O)OCC(=O)NCC(F)(F)F)cc1[N+](=O)[O-]	/	-14%	-2	-1.6	/
CCOc1ccc2nc(NC(=O)CSC3=NCCS3)sc2c1	-17	>100µM*	96	9.6	-11
CCN=c1scc(C)n1/N=C/c1ccc(O)c(O)c1O	3	1%	0	0.6	6
Cc1cc(C)n(CC2CC(=O)N(c3ccc(C)c(Cl)c3)C2=O)n1 (stereo not given)	4	-8%	-7	1.2	-12
COc1ccccc1CN1CC(C(=O)NCc2cccnc2)CC1=O (stereo not given)	6	-8%	2	0.6	9
CCCCCC/C=C/c1ccc([C@H]2[C@H]3C=CC[C@@H](C)[C@@H]3C(=O)N2Cc2ccccc2)c(F)c1	/	2%	-6	4.1	/
CCc1nnc(NC(=O)CCC(=O)N2CCN(c3cccc(Cl)c3)CC2)s1	/	/	8	0.2	/
Cc1csc(NC(=O)c2ccccc2)n1	/	/	7	1.5	/
Cc1ccc(C(=O)NCCCN2CCOCC2)cc1Cl	/	/	5	-3.5	/
COc1cccc(Oc2nc(-c3ccccc3O)nc3ccccc23)c1	/	/	?	-0.6	/
CCN(CC)CCCN(Cc1cc2cc3c(cc2[nH]c1=O)OCO3)C(=S)NC	/	/	-7	-1.0	/
O=C(c1ccccc1)c1cc2ccccc2o1	-5	2%	-6	-11	-1
Cc1ccsc1/C=N\NC(=O)c1cc(C(C)(C)C)[nH]n1	1	6%	5	13	/
O=C(O)CN(c1ccccc1[N+](=O)[O-])S(=O)(=O)c1ccccc1	7	-7%	1	-0.4	/
C=CCN=C(NC#N)SCCc1ccccc1	0	0%	-7	-0.9	-18
CN1c2ccccc2C2(C)CCCC3=Cc4cccc([N+](=O)[O-])c4OC312 (stereo not given)	6	4%	1	4.4	-19
CSC1=C(C#N)C(c2ccccc2Cl)C2=C(N1)c1ccccc1C2=O (stereo not given)	7	-9%	-17	4.8	21
C[C@]12C=CC(=O)C=C1CC[C@@H]1[C@@H]2C(=O)C[C@@]2(C)[C@H]1CC[C@]2(O)C(=O)COC(=O)CCC(=O)O	/	/	4	-1.2	/
c1ccc(-c2ccc(-c3[nH]ncc3CN3CCC(N4CCSCC4)CC3)cc2)cc1	-32	-1%	98	/	/
NC(=O)c1cn(C2CCCCC2)c2ccccc2c1=O	/	/	-5	5.1	/
CC(Cc1ccccc1)NCCC(=O)NC(C)Cc1ccccc1 (stereo not given)	/	/	-2	-3.1	/
O=C(C1CCCN(Cc2cccs2)C1)N1CCCCCC1 (stereo not given)	-3	-3%	5	-1.7	-2
O=c1[nH]c(=S)n(C2CC2)c(O)c1C=NCc1ccc(F)cc1	/	4%	2	0.8	/
O=C1Nc2ccc([N+](=O)[O-])cc2OC1CCN1CCCC1 (stereo not given)	10	-1%	-5	-0.9	/
O=[N+]([O-])c1ccc(C2CCCC/C2=N/OCc2ccccc2F)c([N+](=O)[O-])c1 (stereo not given)	-1	1%	8	1.5	7
Cc1nn(Cc2ccccc2)c(=O)c2nn(-c3ccc(Cl)cc3)c(C)c12	5	9%	-4	-1.9	-31
N/C(=N\c1nc2ccccc2o1)NC(=O)C(Cc1ccccc1)N1C(=O)c2ccccc2C1=O (stereo not given)	-9	-2%	-18	-1.3	-52
COCCCN1C(=O)c2ccc(C(=O)Nc3ccc(OC)cc3OC)cc2C1=O	7	-9%	3	1.1	-21
CCc1ccc(NC(=O)C2CCN(S(=O)(=O)c3ccc4c(c3)NC(=O)CO4)CC2)cc1	/	/	0	-0.8	/
Cc1ccc(C(=O)NNC(=O)c2ccc(NS(=O)(=O)c3cccs3)cc2)s1	/	/	59	21	/
O=S(=O)([O-])CCC[n+]1c(SCCCS(=O)(=O)O)sc2ccc(Cl)cc21	0	-4%	-4	1.4	-29
Cc1cc(Br)ccc1SCC(=O)N1CCN(S(=O)(=O)c2ccccc2)CC1	/	/	-5	8.4	/
Cc1cn(-c2ccccc2)c(C)c1/C=N\Nc1nc(N2CCOCC2)nc(N2CCOCC2)n1	0	0%	-10	-4.2	/
COC1=CC(=Cc2c(N)n3nc(CC(=O)N4CCCCC4)sc3nc2=O)C=C(OC)C1=O	/	/	1	-2.2	/
O=C(NCc1cccnc1)C1c2ccccc2C(=O)N1C1CCCCCC1 (stereo not given)	1	/	-9	2.0	-59
CCOc1ccc(CCNC(=O)COC(=O)c2ccc(OC(C)C)cc2)cc1OCC	/	/	-12	-2.2	/
COc1ccccc1CC(=O)NCCN1CCCCC1	/	/	-1	0.9	/
CCC(CC)C(=O)Nc1cc(Cl)ccc1C	1	-1%	18	2.4	/
CC(C)(C)C(=O)CSc1nc(N)cc(=O)[nH]1	2	2%	-4	5.9	/
Cc1nc(SCC(=O)Nc2ccccc2C(F)(F)F)c2c(=O)n(C)c(=O)n(C)c2n1	/	/	0	/	0
CCOC(=O)CSC1=C(C#N)C(c2ccccc2)C(C(C)=O)=C(C)N1 (stereo not given)	2	12%	4	1.1	-29
O=C(Nc1ccc(F)cc1)Nc1ccccc1F	4	0%	-4	1.2	/
CCOc1cc(Cl)c(NC(=O)c2ccco2)cc1OCC	0	4%	8	-1.6	-43

(cont.)
SMILES	Arbovirus inh	Mtb H37Rv	Mtb betalactam	RecA intein inh	YopH inh	others
O=C(Cn1cnc2c(cnn2-c2ccccc2)c1=O)OCc1ccccc1	9	-4%	-4	-0.8	-19
COc1ccc(NC(=S)Nc2ccc(C)c(Cl)c2)cc1OC	22	?	90	0.5	/
Cc1cc(C)cc(NCc2ccncc2)c1	/	/	4	0.4	/
CCn1c(CNc2ccccc2Cl)nnc1SCC(=O)OC1CCCCC1	1	1.6µM*	99	2.9	-38
COC(=O)c1c(NC(=O)C2c3ccccc3Oc3ccccc32)sc(C)c1C	5	10%	/	0.9	5
Cc1ccccc1NC(=O)CN1C(=O)C2C3CC(C(Br)C3Br)C2C1=O (stereo not given)	-1	-4%	3	0.1	-12
COC(=O)c1ccc(C(=O)OC)c(NC(=O)COC(=O)C2CCC(C(C)(C)C)CC2)c1 (stereo not given)	6	-7%	10	-2.3	20
CCOc1ccc(NC(=O)CN(C)CC(=O)Nc2ccc(Br)cc2F)cc1OCC	-2	-3%	-10	-2.1	/
CC(=NCCc1ccccc1)C1=C(O)COC1=O	-2	-8%	-11	-2.1	-25	Arbovirus inh repeat=3
O=C(CSc1ccccn1)N1CCN(c2cccc(Cl)c2)CC1	-1	-3%	-8	3.2	-28
O=C(NCCCN1CCOCC1)c1ccc2ccccc2c1	/	/	-3	-7.4	/
O=C(CCc1ccc(S(=O)(=O)NCc2ccccc2)cc1)NCC1CCCO1 (stereo not given)	3	12%	5	0.3	-32
Clc1ccc2nc(CN3CCCCCC3)cn2c1	7	-8%	-9	3.4	-150
CCN(CC)P(=O)(Nc1cccc(C(F)(F)F)c1)c1ccc(N(C)C)cc1NC(=O)c1ccco1 (stereo not given)	-13	3%	-3	-0.5	/
C=CCNC(=O)N1C2=NC(C(=O)OC)=C(C(=O)OC)[C@@H]3N(Cc4ccccc4)c4ccccc4[C@]23C[C@H]1C(=O)OC	/	3%	4	-3.9	/
CC1CN(C(=O)c2ccc(-c3cccc(C(F)(F)F)c3)o2)CC(C)O1 (stereo not given)	/	/	-2	-1.2	/
COc1ccc(/C=C2/C(=O)NC(=O)N(c3ccc(C)c(C)c3)C2=O)cc1CN1C(=O)c2ccccc2C1=O	5	-6%	-2	9.8	-26
Cn1c(=O)n(C)c2cc(NS(=O)(=O)c3ccc(Cl)s3)ccc21	-2	-7%	1	-1.4	/
CN1CCN(CCCNC(=O)c2ccc3c(c2)N(Cc2ccccc2)CCS3)CC1	-9	-5%	4	-3.5	-36	Arbovirus inh repeat=-13
O=C(Cn1c(C(=O)NCCCN2CCOCC2)cc2sccc21)c1ccccc1	3	-6%	-2	-1.7	-21

Reprinted from the part before: two entries, followed by the next part.
SMILES	Arbovirus inh	Mtb H37Rv	Mtb betalactam	RecA intein inh	YopH inh	others
CN1CCN(CCCNC(=O)c2ccc3c(c2)N(Cc2ccccc2)CCS3)CC1	-9	-5%	4	-3.5	-36	Arbovirus inh repeat=-13
O=C(Cn1c(C(=O)NCCCN2CCOCC2)cc2sccc21)c1ccccc1	3	-6%	-2	-1.7	-21
CCc1ccccc1NC(=O)CCCN1C(=O)C2CC=CCC2C1=O (stereo not given)	/	/	-7	-1.6	/
CCCn1c(=C(C#N)C#N)s/c(=C2\C=Cc3ccccc3N2CC)c1=O	2	8%	/	/	-38
CCOc1cc(C(=S)N2CCCC2)ccc1OCC(=O)Nc1c(C)cc(C)cc1C	-7	-2%	-12	0.6	-31
Fc1ccc(NC(=S)N2CCc3[nH]c4ccccc4c3C2)cc1	/	-7%	-6	-9.6	/
CCOC(=O)C1(Cc2cccc(Cl)c2)CCCN(C(=O)c2ccnn2C)C1 (stereo not given)	/	/	-3	2.0	/

These rows are one share of the data (hit frequency here may not be typical).
